# Bioassay records (PubChem BioAssay)
# Sa growth 42C = blocks Staphylococcus aureus growth; actives 0.53% (n = 170,000); S. aureus RN4220 growth, OD600, 20 h, 42 °C; stronger effect = lower value; relative growth, % (test concentration not listed);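 active = growth at 42 °C up to 50% and 20 or more points under that at 30 °C, or under 10% at both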;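 also: 300 nL library stock went into each well; scaled to the means of positive and negative controls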
# HCMV UL50-53 inh = inhibitors of HCMV UL50-UL53 nuclear egress complex interaction; HTRF UL50-UL53 interaction, normalized percent inhibition; inhibition, % (test concentration not listed); actives 0.15% (n = 190,000); AID 1918969;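 active = both replicates at 50% or more, plus weaker picks with an unusually low signal ratio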;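 also: stock transfer was 100 nL into about 20 µL; 0% = negative control wells and 100% = wells with untagged competitor protein; inactives centre near -12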
# GIV Gai3 FP = GIV-Galpha-i interaction inhibition. P08753. Galpha-i3/FITC-GIV peptide fluorescence polarization, 90 min; stronger effect = lower value; scaled: aluminum fluoride 0%, vehicle 100%. percent of control (FP), % (concentration not given with the values). actives 0.42% (n = 210,000). AID 1224905;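 active = replicate mean at 85% of control or lower, very high polarization wells dropped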;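 also: wells of about 15 µL received 100 nL stock; the first replicate is given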
# Target sequence (P08753 whole entry, looked up): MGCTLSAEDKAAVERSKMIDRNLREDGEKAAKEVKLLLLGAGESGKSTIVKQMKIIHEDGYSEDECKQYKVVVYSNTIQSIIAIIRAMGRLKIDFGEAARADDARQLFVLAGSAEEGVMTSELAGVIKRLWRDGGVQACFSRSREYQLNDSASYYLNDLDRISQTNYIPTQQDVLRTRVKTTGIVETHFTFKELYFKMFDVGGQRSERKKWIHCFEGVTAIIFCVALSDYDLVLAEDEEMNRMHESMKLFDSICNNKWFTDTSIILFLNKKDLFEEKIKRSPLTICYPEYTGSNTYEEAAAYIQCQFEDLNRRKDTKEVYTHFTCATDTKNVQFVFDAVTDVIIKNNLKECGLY
# Sa growth 42C second temp = also measured in Sa growth 42C; calls as there; relative growth, %; measured here: growth at 30 °C;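 optical density after 20 h as mean of two plates; 100% = untreated growth and lower means inhibition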
# The depositor's hits bear a star; . = no result given; & = joins results of further samples.
SMILES,Sa growth 42C,Sa growth 42C second temp,HCMV UL50-53 inh,GIV Gai3 FP
CCN(CC)S(=O)(=O)c1cc(-c2nnc(-c3ccc(C)cc3)o2)ccc1C,102,108,-1,.
COc1ccc(Br)c(C(=O)Nn2c(-c3ccccc3F)nc3ccccc3c2=O)c1,.,.,-3,101
Cc1cc(C)c2c(C)c(C(=O)N3CCC(c4nc5ccccc5s4)CC3)oc2c1,98,83,-25,102
COC(=O)C1=C(C)NC(C)=C(C(=O)OC)C1c1ccccc1OCc1c(C)no[n+]1[O-],86,93,-33,.
COC(=O)c1ccccc1NC(=O)CSc1nc2c(c(=O)[nH]1)CCCC2,112,87,-2,106
CC1=NN(c2ccccc2)C(=O)/C1=C\c1ccccc1OS(=O)(=O)c1ccccc1[N+](=O)[O-],.,.,-24,104
CN1/C(=C\C=C2\C(=O)Oc3ccccc3C2=O)C(C)(C)c2ccccc21,94,77,.,-32*
CCCNC(=O)c1cccc(NC(=O)N2CCSc3ncccc32)c1,94,90,-23,107
CCOC(=O)c1ccccc1NC(=O)c1ccc2c(Cl)c3c(nc2c1)CCC3,106,89,-28,100
Cc1ccc(S(=O)(=O)NC(=O)c2cc(/C=N/NCCC#N)n(C)c2)cc1,95,95,2,.
Cc1ccc2nc(C3=C(O)CN(c4ccc(Cl)cc4)C3=N)[nH]c2c1,.,.,-9,102
CCN(CCN(C)C)c1ncc(C(=O)O)cc1NS(=O)(=O)c1ccc(Br)cc1,.,.,-40,101
Cc1ccnc(NS(=O)(=O)c2ccc(NC(=O)c3ccc(C)c(C)c3)cc2)n1,113,89,-51,109
CC(=O)N1CCN(c2ccc(Nc3cc(C)nc4nc(-c5ccc(C)cc5)nn34)cc2Cl)CC1,.,.,-28,108
CSc1ncn(-c2nc(NC(C)C)nc(N(C)C)n2)n1,.,.,-15,100
O=C(Nc1ccc2oc(-c3ccccc3)nc2c1)c1ccc(Br)cc1,127,100,-6,103
Cc1[nH]c(C)c(S(=O)(=O)N2CCC(C(=O)Nc3ccc(Cl)cc3F)CC2)c1C(=O)N1CCCCC1,.,.,-6,109
O=C1CCCc2[nH]c(=O)c(C(=O)Nc3ccc4c(c3)OCCO4)cc21,.,.,-22,107
O=C1CC(c2ccccc2Cl)c2c(-c3ccccc3)nn(-c3ccccc3)c2N1 (stereo not given),.,.,-21,103
COc1ccc(S(=O)(=O)[C@H]2CS(=O)(=O)C[C@@H]2N2CCOCC2)cc1,.,.,-7,97
O=C(CCC(=O)c1cccs1)NC1=NCCS1,105,89,-4,.
Cc1n[nH]c(C)c1NC(=O)c1cc2ccccc2oc1=O,99,88,-32,102
Cc1c(C#N)c2nc3ccccc3n2c(=O)/c1=C\Nc1cccc(NC(=O)c2ccccc2)c1,111,92,.,-67*
CC(Sc1nc(N)cc(N)n1)C(=O)c1ccc(Br)cc1 (stereo not given),126,97,10,.
COC(=O)c1ccc(CSc2nnc(SCC(=O)Nc3ccc4c(c3)OC3(CCCCC3)O4)s2)o1,88,91,-21,.
# Next part:
SMILES,Sa growth 42C,Sa growth 42C second temp,HCMV UL50-53 inh,GIV Gai3 FP
COc1ccc(C2C3=C(CC(c4ccccc4O)CC3=O)Nc3onc(C)c32)cc1OC (stereo not given),.,.,-1,100
C=CCc1cc(OC)ccc1OCCCSc1ncccn1,106,92,-9,99
COc1ccc(OCC(=O)N2N=C(c3ccc(Cl)cc3)CC2c2ccco2)cc1 (stereo not given),102,92,-32,.
CC(C)(C)SCCNC(=O)CN1c2ccc(F)cc2-c2ccccc2S1(=O)=O,.,.,-18,104
Cc1cc(C)c(C#N)c(Nc2ccc3c(c2)OCCO3)n1,110,93,6,102
COc1ccc(-n2c(Cn3c(=O)sc4ccccc43)nnc2SCC(=O)N2CCCC2)cc1,109,101,10,100
Cn1c(-n2cccc2)c(-c2c(-c3ccccc3)[nH]c3c2c(=O)[nH]c(=O)n3C)c(=O)[nH]c1=O,106,80,-2,104
CC1CCc2noc(NC(=O)COc3ccccc3)c2C1 (stereo not given),.,.,-19,102
COc1ccccc1N1CCN(C(=O)c2oc3ccccc3c2NC(=O)C(C)Oc2ccccc2)CC1 (stereo not given),80,91,.,102
COc1cc2c(C)nc3onc(-c4ccccc4)c3c2cc1OC,116,101,-1,102
Nc1nnc(-c2cc3cc(Cl)cc(Cl)c3oc2=O)s1,.,.,-41,106
COc1cccc(/C(O)=C/c2nc3ccc(C(F)(F)F)cc3[nH]c2=O)c1,92,97,.,135
COc1cc(-c2nc3ccccc3c(=O)[nH]2)cc(Br)c1O,95,82,-36,97
COCCC1C(=O)c2c(n(Cc3ccccc3)c3nc4ccccc4nc23)N=C1C (stereo not given),98,91,2,.
Cc1[nH]nc2nc3c(c(-c4cc(C)n(C5CC5)c4C)c12)C(=O)CC(C)(C)C3,90,97,-1,.
Cc1cc(C)c2cc(C(=O)Nc3ccccc3)[nH]c2c1,95,86,-8,103
COC(=O)C1=C(C)Nc2nc(SCC(C)C)[nH]c(=O)c2C1c1sccc1C (stereo not given),.,.,-32,96
Cc1onc(-c2ccccc2)c1-c1csc(-c2ccc(-c3csnn3)cc2)n1,95,86,-7,106
Cn1c(=O)n(C)c2cc(Sc3ccc(Cl)cc3)c(NS(=O)(=O)c3ccc(F)cc3F)cc21,.,.,-6,110
CCOC(=O)c1c(C)nsc1NC(=O)C1CCC1,89,86,8,99
COc1cccc(NC(=O)Cn2nc3ccc(S(=O)(=O)C(C)(C)C)nn3c2=O)c1,.,.,-90,103
Cc1ccc(Sc2ncnc3ccsc23)cc1,102,107,0,100
Cn1c(=O)[nH]c(=O)c2c1nc(NCCc1ccccc1)n2Cc1ccc(F)cc1,100,83,-36,102
COc1ccc2oc(=O)cc(CN3CCN(c4ncccn4)CC3)c2c1,87,88,.,102
CCc1ccc(NC(=O)CSc2nncn3c2cc2occc23)cc1,70,61,.,112
# (further entries)
SMILES,Sa growth 42C,Sa growth 42C second temp,HCMV UL50-53 inh,GIV Gai3 FP
COC(=O)c1ccc(Cl)cc1NC(=O)N1CCC(CN2CCC(C)CC2)CC1,98,84,.,103
CCOC(=O)C1=C(C)N=c2s/c(=C\c3ccc(OC(C)=O)cc3)c(=O)n2C1c1cccc([N+](=O)[O-])c1 (stereo not given),.,.,-11,117
O=C(c1cccc(Cl)c1)N(Cc1ccccc1)Cc1ccccc1,101,76,-14,.
Cc1cccc(N2CCN(CCCNc3nnc4c5ccccc5n(C)c4n3)CC2C)c1 (stereo not given),94,85,.,99
CCCOc1ccc(C2C(=O)N(C3CCCCCC3)CC(=O)N2Cc2ccccc2OC)cc1OC (stereo not given),116,81,.,105
COc1ccc(NC(=O)Cn2nnc(C(=O)NCc3cccs3)c2N)cc1,98,90,-21,105
Cc1nc(C)c(-c2ccnc(C34CC5CC(CC(C5)C3)C4)n2)o1,115,88,-26,108
COc1ccc(Br)cc1/C=C1\C(=O)N(c2ccc(Cl)c(C(=O)O)c2)N=C1C,.,.,-1,101
CC1CCCCN1C(=O)CSc1nnc2c3ccccc3n(CC(=O)O)c2n1 (stereo not given),99,78,-60,103
COc1cccc(NC(=O)Nc2ccc(SCc3nnc(-c4ccccc4)o3)cc2)c1,.,.,-26,104
CCSc1nnc(NC(=O)COc2ccccc2)s1,104,92,-20,.
C=C1C[C@H]2[C@@H]3C=C(C)C4=CC(=O)CC[C@]4(C)[C@H]3CC[C@]2(C)[C@@]1(OC(C)=O)C(C)=O,98,89,-29,102
COc1cn(-c2ccccc2)nc1C(=O)OCc1ccc(C#N)cc1,94,94,-35,.
CC1=C(C#N)C(c2ccc3c(c2)CCC(C)(C)O3)C2=C(CCCC2=O)N1 (stereo not given),96,86,-11,99
CCOc1ccccc1/C=C1/N=C(C)OC1=O,98,88,-13,122
c1ccc2sc(CCc3nc4ccccc4s3)nc2c1,76,85,-9,.
Cc1cc(C)c2c(n1)SCCN2C(=O)Nc1cc(F)ccc1F,.,.,-6,103
O=C(CN1C(=O)COc2ccccc21)N1CCC(c2nc(-c3ccccc3)no2)CC1,.,.,-9,104
CCOc1ccc(NC(=O)Cn2nnc(C(=O)NCc3cccs3)c2N)cc1,104,88,-22,101
COC(=O)CN1C(C)=Nc2ccc(Br)cc2C1c1ccccc1 (stereo not given),102,82,-6,.
CCOC(=O)C1CCN(c2cc3c(cc2NC(=O)CC)n(C)c(=O)n3C)CC1,.,.,8,107
Cc1ccc2oc(=O)c3cnn(CC(=O)NC4CCC(C)CC4)c3c2c1 (stereo not given),105,91,-16,102
CCC(C(=O)Nc1nnc2n1CCS2)c1ccccc1 (stereo not given),103,87,.,97
CC(=O)N1CCN(C(=O)C2CCN(S(=O)(=O)c3ccccc3C(F)(F)F)CC2)CC1,88,91,-12,.
COc1cc2c(cc1OC)CN(C(=O)c1cc(C(C)(C)C)nn1C)CC2,108,70,-2,101

# Brought forward from above: 5 entries, then new ones.
SMILES,Sa growth 42C,Sa growth 42C second temp,HCMV UL50-53 inh,GIV Gai3 FP
CCOC(=O)C1CCN(c2cc3c(cc2NC(=O)CC)n(C)c(=O)n3C)CC1,.,.,8,107
Cc1ccc2oc(=O)c3cnn(CC(=O)NC4CCC(C)CC4)c3c2c1 (stereo not given),105,91,-16,102
CCC(C(=O)Nc1nnc2n1CCS2)c1ccccc1 (stereo not given),103,87,.,97
CC(=O)N1CCN(C(=O)C2CCN(S(=O)(=O)c3ccccc3C(F)(F)F)CC2)CC1,88,91,-12,.
COc1cc2c(cc1OC)CN(C(=O)c1cc(C(C)(C)C)nn1C)CC2,108,70,-2,101
CC(=O)N1CCCc2cc(S(=O)(=O)Nc3ccc(OC(F)(F)F)cc3)ccc21,106,92,.,104
Cc1cc(/C(N)=N\O)n(C)n1,99,82,-1,99
O=C(Nc1ccccc1C(=O)NCc1ccco1)c1ccc(Cl)cc1,119,96,-1,106
CCCCNC(=O)c1ccc2c(c1)NC(=O)C(C(C)C)N2 (stereo not given),74,89,-4,109
Cc1[nH]c(C)c(S(=O)(=O)N2CCCCC2)c1C(=O)N1CCCCC1,99,104,13,106
CC(=O)Nc1ccc(S(=O)(=O)NCCc2csc3nc(-c4cccc(C)c4)nn23)cc1,102,85,.,98
CCc1cccc(CC)c1NC(=O)Cc1csc(C)n1,91,83,-12,98
O=C(c1c2c(nc3ccccc13)C(=O)N(C1CCCCC1)C2)N1CCN(C2CCCCC2)CC1,.,.,-52,109
C[C@]12CC[C@@H]3c4ccc(OS(=O)(=O)O)cc4CC[C@H]3[C@@H]1CCC2=O,89,87,-25,.
COc1cc(NC(=O)c2nn(C)c(C(F)(F)F)c2Cl)cc(OC)c1,.,.,-3,99
COc1cccc(NC(=O)Cn2c(=O)n(-c3ccc(C)cc3)c(=O)c3ccccc32)c1,101,91,9&-5,105&106
COC(=O)C(C)OC(=O)c1ccc(Cl)c(Cl)c1 (stereo not given),88,89,-13,98
COc1ccccc1C(=O)Nc1ccccc1C(=O)N1CCCCC1,97,105,12,104
CCCc1cc(=O)[nH]c(SCC(=O)N2CCCCCC2)n1,85,97,-4,.
Cc1ccc(CCNc2nc3ccccc3c3nc(-c4cccnc4)nn23)cc1,104,93,-2,101
COCCNC(=O)C1CCN(C(=O)c2sccc2-n2cccc2)CC1,91,92,-13,96
CCSc1nc(C(F)(F)F)nc2ccccc12,81,87,-17,.
O=C(/C=C/c1cn(-c2ccccc2)nc1-c1cccnc1)NCCCn1ccnc1,95,94,-19,.
O=C(Nc1ccc(F)cc1)c1cccc(N2CCCS2(=O)=O)c1,115,91,-25,110&105
O=C(CSCc1cnn(-c2ccccc2)c1-n1cccc1)NCCN1CCCC1,113,89,-8,103
COc1cc(C(=O)NC(c2ccc(Cl)cc2)c2cc(Cl)c3cccnc3c2O)cc(OC)c1OC (stereo not given),86,36,.,103
C=CCNCc1cccn1-c1ccccc1,100,108,-30,106
Cc1nn(-c2cc(N3CCOCC3)ncn2)c(C)c1CCC(=O)N1CCOCC1,.,.,-20,100
c1c2c(cc3sc(N4CCOCC4)nc13)OCCO2,92,84,.,100
Cc1cccc(NC(=O)N2CCC(n3c(C)nc4cccnc43)CC2)c1,108,89,.,108
# The listing continues.
SMILES,Sa growth 42C,Sa growth 42C second temp,HCMV UL50-53 inh,GIV Gai3 FP
O=C(Nc1cccnc1)c1cc2ccccc2oc1=O,122,83,.,92
Cc1c(C(=O)N2CCC(C)CC2)oc2ccc3c(c12)C(=O)CC(C)(c1ccc(Cl)cc1)O3 (stereo not given),.,.,-4,99
CCOc1cc(C#N)cc(I)c1OCC(=O)OC,105,102,1,106
O=C(O)CNC(=O)COc1ccccc1,100,92,-39,.
CCOCCn1ccc2c(OCC(=O)NCc3ccc(F)cc3)cccc2c1=O,128,84,.,101
CCOc1ccc(C(=O)N(C)CCc2noc(COc3ccccc3)n2)cc1,.,.,-24,106
Nc1nnc(C2CC2)s1,91,89,-10,.
Cc1ccc2c(c1)N(C(=O)N1CCC(C(=O)NCCC3=CCCCC3)CC1)CC(C)O2 (stereo not given),95,80,-25,100
CCc1nnc(NC(=O)c2ccc(S(=O)(=O)N(C)C)cc2)o1,79,73,-38,102

# Some of the entries so far, with two lines to a compound:
# Order of values – Sa growth 42C, Sa growth 42C second temp, HCMV UL50-53 inh, GIV Gai3 FP
- Cc1ccc2c(c1)N(C(=O)N1CCC(C(=O)NCCC3=CCCCC3)CC1)CC(C)O2 (stereo not given)
  95, 80, -25, 100
- CCc1nnc(NC(=O)c2ccc(S(=O)(=O)N(C)C)cc2)o1
  79, 73, -38, 102
